Source: PubChem (several laboratories)
VCAM-1 imaging – inhibitors of TNFa-induced VCAM-1 surface display, imaging, high-content imaging, pooled HUVEC, TNFa stimulus (AID 456). HUVEC TNFa-induced VCAM-1 surface expression, immunofluorescence imaging; numbers were filed only for top-ranked candidate wells. inhibition, % at 5 µM, or IC50 in µM where a hit was titrated. actives 0.2% (n = 10,000);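 active means top tenth filtered wells with inhibition above zero that passed visual or statistical confirmation; inactive means the rest, including hits rejected on review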;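 further: 0% = stimulated vehicle wells and 100% = unstimulated cells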
FPRL1 binder – ligands of human FPRL1, also counter-screen for FPR ligands. FPRL1-expressing cells, fluorescent ligand binding inhibition, flow cytometry. AID 441. inhibition, %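 (tested at 6.7 µM)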. actives 0.3% (n = 24,000);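 further: 0% = buffer alone and 100% = receptor blocker peptide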
Target sequence (P25090 whole entry, looked up): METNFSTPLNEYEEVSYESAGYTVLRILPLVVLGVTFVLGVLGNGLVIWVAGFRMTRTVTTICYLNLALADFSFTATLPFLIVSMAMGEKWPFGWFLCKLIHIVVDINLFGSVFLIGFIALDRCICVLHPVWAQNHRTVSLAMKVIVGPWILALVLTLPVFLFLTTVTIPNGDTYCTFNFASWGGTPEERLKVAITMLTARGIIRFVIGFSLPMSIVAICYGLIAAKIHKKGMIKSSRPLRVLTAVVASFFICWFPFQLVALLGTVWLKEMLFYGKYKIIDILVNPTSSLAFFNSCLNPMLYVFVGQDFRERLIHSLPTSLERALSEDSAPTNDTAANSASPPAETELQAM
VCAM-1 augmentation – enhancers of VCAM-1 display on endothelial cells, imaging, high-content imaging, pooled HUVEC, TNFa stimulus (AID 457); Pooled HUVEC, TNFa-induced VCAM-1 immunofluorescence imaging; hits of this screen are not shown here; calls only; actives 0.2% (n = 10,000);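 active means a top-ranked rise in VCAM-1 staining upheld on image or statistical review; inactive means the rest, including candidates rejected on review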;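 further: compounds tested at 5 µM in the well; cells exposed to compound for 24 hours before fixing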
FPR binder – human FPR ligand, with FPRL1 counter-screen; P21462; FPR-expressing cells, fluorescent ligand binding, flow cytometry; inhibition, %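 (tested at 6.7 µM)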; actives 0.74% (n = 24,000); AID 440;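 further: 0% = buffer wells and 100% = receptor blocker peptide wells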
Target sequence (P21462 whole entry, looked up): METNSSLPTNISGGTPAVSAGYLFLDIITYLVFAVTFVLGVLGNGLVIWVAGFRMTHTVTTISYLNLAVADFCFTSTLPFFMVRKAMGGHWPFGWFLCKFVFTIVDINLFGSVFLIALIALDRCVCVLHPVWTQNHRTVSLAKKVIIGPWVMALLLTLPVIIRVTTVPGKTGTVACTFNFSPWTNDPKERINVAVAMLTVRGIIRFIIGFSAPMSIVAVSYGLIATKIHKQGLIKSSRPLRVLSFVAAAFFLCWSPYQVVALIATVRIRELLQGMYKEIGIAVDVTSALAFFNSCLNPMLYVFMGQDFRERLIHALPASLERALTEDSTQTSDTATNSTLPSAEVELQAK
VCAM-1 down – inhibitors of TNFa-induced VCAM-1 surface display, cell-based, plate reader, pooled HUVEC, TNFa stimulus (AID 454); HUVEC TNFa-induced VCAM-1 surface immunofluorescence, plate reader; numbers were filed only for top-ranked candidate wells; inhibition, % at 5 µM; actives 0.2% (n = 10,000);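 active means compound among top-ranked inhibitors of TNF-induced VCAM-1 adhesion protein staining, with the hit upheld by image or statistical review; inactive means the rest, including hits rejected on review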;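 further: 0% = TNFa with vehicle and 100% = cells without TNFa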
Starred values were filed as active, the others as inactive; i = inactive; x = not tested or not shown.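 How the source made its calls, unless noted: active means mean above 30%; inconclusive means self-fluorescent; inactive means the rest.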 These rows are one share of the data; the hit share may differ from the screen's.

Screens by letter: A = VCAM-1 imaging; B = FPRL1 binder; C = VCAM-1 augmentation; D = FPR binder; E = VCAM-1 down
CC1=C(C(=O)Nc2ccccc2)C(c2cccnc2)n2nc(-c3cccnc3)nc2N1 (configuration not stated)
  A: x	B: 2	C: x	D: 0	E: x

CC(=O)N1c2ccccc2NC2=C(C(=O)CCC2)C1c1ccc(F)cc1 (configuration not stated)
  A: x	B: -2	C: x	D: -4	E: x

O=S(=O)(c1ccccc1)N1CCSC1c1ccco1 (configuration not stated)
  A: i	B: -2	C: i	D: -2	E: i

Cc1ccc2c(c1)NCC(C(=O)NCc1ccccc1)O2 (configuration not stated)
  A: x	B: 5	C: x	D: 4	E: x

COc1ccccc1-c1nc(-c2ccccn2)no1
  A: x	B: 5	C: x	D: 10	E: x

C=CCNC(=O)c1scc2c1CCCC2
  A: x	B: 0	C: x	D: -11	E: x

O=C(CN1C(=O)C2C3C=CC(C3)C2C1=O)N1CC=C(c2ccccc2)CC1 (configuration not stated)
  A: x	B: -1	C: x	D: 0	E: x

CC(=O)c1c(C)[nH]c(C(=O)Nc2c(C)n(C)n(-c3ccccc3)c2=O)c1C
  A: i	B: -3	C: i	D: -3	E: i

CCOC(=O)C1C2C=CC3(CN(Cc4ccco4)C(=O)C13)O2 (configuration not stated)
  A: i	B: -3	C: i	D: -3	E: i

Cc1ccc2[nH]c(C)c(CN(C)C3CCN(C)CC3)c(=O)c2c1
  A: x	B: 9	C: x	D: -7	E: x

The list continues.
Screens by letter: A = VCAM-1 imaging; B = FPRL1 binder; C = VCAM-1 augmentation; D = FPR binder; E = VCAM-1 down
COC(=O)C1=C(C(=O)c2ccccc2)C(c2cccs2)n2nnnc2N1 (configuration not stated)
  A: x	B: 1	C: x	D: 3	E: x

O=C(C(Cc1ccccc1)n1cccc1)N1CCc2ccccc21 (configuration not stated)
  A: x	B: 2	C: x	D: 5	E: x

Cn1c(=O)cc(SCC(=O)N2CCN(C3CCCCC3)CC2)c2ccccc21
  A: x	B: -4	C: x	D: -7	E: x

COC(=O)c1cc(=O)[nH]c(SCc2cccc(C)c2)n1
  A: x	B: 0	C: x	D: 2	E: x

CC(=O)Nc1cc(NC(C)=O)cc(C(=O)NC(C)(C)C)c1
  A: x	B: 3	C: x	D: -2	E: x

COc1ccc(C2/C(=C(/O)c3ccc(Cl)cc3)C(=O)C(=O)N2CCN2CCOCC2)c(OC)c1 (configuration not stated)
  A: x	B: -4	C: x	D: -1	E: x

CC(=O)C1=C(O)C(=O)N(c2cccc(C(=O)O)c2)C1c1ccccc1F (configuration not stated)
  A: x	B: 5	C: x	D: 0	E: x

COc1cc2c(cc1OC)-c1nncn1C(C)(C)C2
  A: x	B: 4	C: x	D: 10	E: x

CCCCCCSc1cc(C)nc2ncnn12
  A: x	B: -1	C: x	D: 0	E: x

CCN(CCCNC(=O)C1CCN(S(=O)(=O)c2cccc3nonc23)CC1)Cc1ccccc1
  A: i	B: -5	C: i	D: 0	E: i

The list goes on (5 carried over from the part before).
Screens by letter: A = VCAM-1 imaging; B = FPRL1 binder; C = VCAM-1 augmentation; D = FPR binder; E = VCAM-1 down
COc1ccc(C2/C(=C(/O)c3ccc(Cl)cc3)C(=O)C(=O)N2CCN2CCOCC2)c(OC)c1 (configuration not stated)
  A: x	B: -4	C: x	D: -1	E: x

CC(=O)C1=C(O)C(=O)N(c2cccc(C(=O)O)c2)C1c1ccccc1F (configuration not stated)
  A: x	B: 5	C: x	D: 0	E: x

COc1cc2c(cc1OC)-c1nncn1C(C)(C)C2
  A: x	B: 4	C: x	D: 10	E: x

CCCCCCSc1cc(C)nc2ncnn12
  A: x	B: -1	C: x	D: 0	E: x

CCN(CCCNC(=O)C1CCN(S(=O)(=O)c2cccc3nonc23)CC1)Cc1ccccc1
  A: i	B: -5	C: i	D: 0	E: i

OC(CCN1CCCCC1)(c1ccccc1)C1CCCCC1 (configuration not stated)
  A: i	B: 0	C: i	D: -6	E: i

COc1ccc(NC(=O)N2CCC(O)(c3cccnc3)CC2)c(OC)c1
  A: i	B: 2	C: i	D: -1	E: i

Cc1cc(C)cc(N(CC(=O)NC2CCC(C)CC2)S(=O)(=O)c2c(C)noc2C)c1 (configuration not stated)
  A: i	B: 0	C: i	D: -1	E: i

O=c1cc(N2CCCC2)[nH]c(=O)n1-c1ccc(Cl)cc1
  A: x	B: -6	C: x	D: -2	E: x

COc1ccc(CN2CC(C(=O)NCCCN3CCCCCC3)CC2=O)cc1 (configuration not stated)
  A: x	B: 1	C: x	D: -1	E: x

COc1ccccc1N1CCN(C(=O)c2cc(-c3cccs3)on2)CC1
  A: x	B: 2	C: x	D: 4	E: x

CSc1oc(-c2ccc(F)cc2)nc1S(=O)(=O)c1ccccc1
  A: x	B: -2	C: x	D: -1	E: x

O=C1c2ccccc2C(=O)N1CCCc1nc(-c2ccc(Cl)cc2)no1
  A: x	B: -8	C: x	D: -3	E: x

Cc1ccc2nc(C)c(C)nc2c1N
  A: x	B: 3	C: x	D: -2	E: x

CCN(CC)c1cc2nonc2c2nonc12
  A: x	B: -2	C: x	D: 3	E: x

Going on with the list.
Screens by letter: A = VCAM-1 imaging; B = FPRL1 binder; C = VCAM-1 augmentation; D = FPR binder; E = VCAM-1 down
CCC(C)(NC(=O)CNC(C)=O)C(=O)NC1CCCCC1 (configuration not stated)
  A: i	B: -3	C: i	D: -3	E: i

CCCCCn1c(CNC(=O)c2cccs2)nc2ccccc21
  A: x	B: -11	C: x	D: -8	E: x

CCS(=O)(=O)NCCc1csc(C)n1
  A: x	B: 2	C: x	D: 0	E: x

N=c1c(S(=O)(=O)c2ccc(Cl)cc2)cc2c(=O)n3ccccc3nc2n1CCN1CCOCC1
  A: x	B: 14	C: x	D: 8	E: x

COc1ccc(Cl)cc1S(=O)(=O)N1CCN(CC(=O)C(C)(C)C)CC1
  A: x	B: 8	C: x	D: -5	E: x

COc1ccc(C(=O)NCC(=O)NC2=NCCS2)cc1
  A: i	B: 0	C: i	D: -1	E: i

Cc1ccc(Cn2nnc3c(=O)n(CC(=O)NCC4CCCO4)cnc32)cc1 (configuration not stated)
  A: i	B: 1	C: i	D: 5	E: i

CCCN1CCN(CCCNC(=O)Cn2nc(-c3ccccc3)ccc2=O)CC1
  A: x	B: -7	C: x	D: -11	E: x

O=C(OCCCN1C(=O)c2ccccc2C1=O)c1ccco1
  A: i	B: 5	C: i	D: -7	E: i

CC(NC(=O)c1ccc(N(C)C)cc1)C(c1cccs1)N1CCN(C)CC1 (configuration not stated)
  A: x	B: -11	C: x	D: -7	E: x

(listing goes on)
Screens by letter: A = VCAM-1 imaging; B = FPRL1 binder; C = VCAM-1 augmentation; D = FPR binder; E = VCAM-1 down
O=C(NCc1ccccc1Cl)C1CCN(S(=O)(=O)N2CCCCCC2)CC1
  A: x	B: -1	C: x	D: 5	E: x

FC(F)(F)c1nnc2ccc(-n3ccnc3)nn12
  A: x	B: 4	C: x	D: -6	E: x

CCCC(CCC)C(=O)NCCN1CCOCC1
  A: i	B: 1	C: i	D: -1	E: i

C=CCn1cc(C(=O)NCCCOC)c(=O)c2cc(S(=O)(=O)N(CC)CC)ccc21
  A: x	B: 4	C: x	D: -6	E: x

CCOC(=O)N1CCN(C(=O)CSc2nnc(Cc3ccccc3)o2)CC1
  A: i	B: -2	C: i	D: -5	E: i

O=C(O)c1cc(=O)cc(C(=O)O)[nH]1
  A: i	B: 0	C: i	D: 7	E: i

CCOCCCn1c(=S)[nH]c2ncccc2c1=O
  A: x	B: 3	C: x	D: -2	E: x

Cc1nc2sc(C(c3ccc(Cl)cc3)N3CCN(c4ccccc4F)CC3)c(O)n2n1 (configuration not stated)
  A: x	B: -1	C: x	D: 8	E: x

Cn1c(=O)cc(OCCCC(=O)NCc2ccccn2)c2ccccc21
  A: x	B: 1	C: x	D: -2	E: x

CCOC(=O)c1cnc2c(OC)cccc2c1N1CCN(c2ccc(OC)cc2)CC1
  A: i	B: 2	C: i	D: 1	E: i

(further entries)
Screens by letter: A = VCAM-1 imaging; B = FPRL1 binder; C = VCAM-1 augmentation; D = FPR binder; E = VCAM-1 down
COc1cc(C(N)=O)ccc1OCc1ccccc1
  A: i	B: 1	C: i	D: -5	E: i

O=C(Nc1nsc(-c2ccccc2)n1)c1ccncc1
  A: x	B: -5	C: x	D: -4	E: x

COc1ccc(S(=O)(=O)NCCC(=O)NC2CCCCCCC2)cc1
  A: i	B: -1	C: i	D: 0	E: i

CCOc1ccccc1N1CCN(c2nc3ccccc3nc2C(C#N)C(=O)OC)CC1 (configuration not stated)
  A: i	B: -8	C: i	D: -4	E: i

COc1cc(OC)c(N(C)C(=O)CCNC(=O)Cn2cnc3ccccc3c2=O)cc1Cl
  A: x	B: 7	C: x	D: 5	E: x

O=C(CSc1nnc2sc3ccccc3n12)c1ccco1
  A: i	B: -1	C: i	D: -1	E: i

CC(=O)Nc1ccc(S(=O)(=O)NC(CC(=O)O)c2ccc(OC(C)C)cc2)cc1 (configuration not stated)
  A: x	B: -2	C: x	D: 0	E: x

O=C(CCc1nc2ccccc2[nH]1)NCc1ccc2c(c1)OCO2
  A: x	B: 5	C: x	D: 2	E: x

CCOC(=O)c1cn(CC)c2cc(N3CCOCC3)c(F)cc2c1=O
  A: i	B: -1	C: i	D: 0	E: i

CC(=O)O[C@]1(C(C)=O)CC[C@H]2[C@@H]3C=C(C)C4=CC(=O)CC[C@]4(C)[C@H]3CC[C@@]21C
  A: i	B: 6	C: i	D: 7	E: i

(listing goes on)
Screens by letter: A = VCAM-1 imaging; B = FPRL1 binder; C = VCAM-1 augmentation; D = FPR binder; E = VCAM-1 down
COc1ccccc1NC(=O)CSc1nnc(-c2ccncc2)n1CC1CCCO1 (configuration not stated)
  A: i	B: 4	C: i	D: -1	E: i

O=C(c1cccs1)c1cn(CC(=O)N2CCc3ccccc3C2)c2ccccc12
  A: i	B: 1	C: i	D: 0	E: i

N#Cc1c(N)nc(N2CCCC2)c(C#N)c1-c1ccc(Cl)cc1
  A: x	B: -3	C: x	D: 5	E: x

CCCCn1nc(C(=O)N2CCc3ccccc32)c2ccccc2c1=O
  A: i	B: -3	C: i	D: -4	E: i

Cc1ccc(NC(=O)CCn2c(=O)oc3ccccc32)c(C)c1
  A: x	B: -29	C: x	D: -10	E: x

CC(CCc1ccccc1)NC(=O)C1CCN(S(=O)(=O)c2cnc[nH]2)CC1 (configuration not stated)
  A: i	B: 1	C: i	D: 4	E: i

COc1cccc(C(=O)Nc2ccc3nc(N4CCN(c5ncccn5)CC4)cc(C)c3c2)c1OC
  A: x	B: 1	C: x	D: -7	E: x

COC(=O)Cc1csc(N)n1
  A: i	B: 0	C: i	D: 1	E: i

COc1ccccc1N=Cc1nc(-c2ccccc2)oc1OC(C)=O
  A: i	B: -1	C: i	D: 3	E: i

COC(=O)c1[nH]c2c(c1C)C(=O)CCC2
  A: x	B: 0	C: x	D: 3	E: x

In a second layout: results already given
structure | VCAM-1 imaging | FPRL1 binder | VCAM-1 augmentation | FPR binder | VCAM-1 down
COC(=O)c1[nH]c2c(c1C)C(=O)CCC2 | x | 0 | x | 3 | x
CC(CCc1ccccc1)NC(=O)C1CCN(S(=O)(=O)c2cnc[nH]2)CC1 (configuration not stated) | i | 1 | i | 4 | i

Other results follow.
Screens by letter: A = VCAM-1 imaging; B = FPRL1 binder; C = VCAM-1 augmentation; D = FPR binder; E = VCAM-1 down
O=C1c2oc3ccc(F)cc3c(=O)c2C(c2cccc(O)c2)N1CCCN1CCOCC1 (configuration not stated)
  A: x	B: 5	C: x	D: 2	E: x

Cc1ccc(C)c(-n2c(CNC(=O)c3ccco3)nnc2SCC(=O)Nc2nccs2)c1
  A: x	B: 1	C: x	D: 3	E: x

CCOc1ccc(/C(O)=C2/C(=O)C(=O)N(c3nc(C)c(C)s3)C2c2ccco2)cc1 (configuration not stated)
  A: x	B: -1	C: x	D: 24	E: x

CCC(C)COC(=O)c1ccc(C(=O)O)cc1 (configuration not stated)
  A: x	B: 3	C: x	D: 2	E: x

CCOC(=O)C1=C(CSc2nc(C)cc(C)c2C#N)OC(N)=C(C#N)C1c1cccs1 (configuration not stated)
  A: i	B: -4	C: i	D: 5	E: i

O=C(Cn1nc(Cc2cccnc2)c2ccccc2c1=O)NCc1ccc2c(c1)OCO2
  A: x	B: 12	C: x	D: 24	E: x

COc1ccc(-c2nc(N3CCOCC3)nc3nn4c(C)c(CCC(=O)O)c(C)nc4c23)cc1
  A: x	B: -6	C: x	D: -3	E: x

CCCN(CCC)CCCNC(=O)c1cc2cc3ccc(OC)cc3nc2o1
  A: x	B: 2	C: x	D: 7	E: x

CCCS(=O)(=O)N1CCC(C(=O)NCCN(CC)c2ccccc2)CC1
  A: x	B: 0	C: x	D: 6	E: x

CC1=C(C(=O)Nc2cccnc2)C(c2cccnc2)n2nc(-c3cccs3)nc2N1 (configuration not stated)
  A: x	B: -8	C: x	D: 1	E: x
